Mtb growth – M. tuberculosis H37Rv growth inhibitors, H37Rv strain (AID 1626); M. tuberculosis H37Rv growth inhibition; higher % means a stronger effect; one-dose inhibition, % at 10 µM; IC50 in µM for titrated hits; actives 0.95% (n = 220,000);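 active = confirmed in a dose series; inconclusive = inhibition above 80% but not taken into the dose series; inactive = below 80% or under 30% at every dose of the series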;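 note: bacteria incubated seven days before Alamar blue readout; 0% = bacteria only wells and 100% = bacteria with antibiotic wells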
Arbovirus anti – antivirals against arbovirus infection, primary screen, cell-based, full library, 10K replicate subset | arbovirus infection cell-based antiviral screen | inhibition, % at 10 µM | actives 0.37% (n = 200,000);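 active = inhibition from about 30%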;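 note: bluetongue infection of BSR cells; cell survival read as ATP light after 72 h; 0% = infected wells without compound and 100% = uninfected wells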
YopH inh – YopH tyrosine phosphatase inhibitors, primary screen, biochemical, fluorescence Ex485/Em525; inhibition, %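 (about 10 µM by stock and volumes)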; actives 0.16% (n = 140,000); AID 898, 2007;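 active = inhibition of 50% or more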;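 note: controls were vehicle for no effect and minimum signal wells for full effect; inactives centre near -20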
Mtb betalactam – beta-lactam sensitization of Mtb H37Rv, H37Rv. M. tuberculosis H37Rv growth with meropenem, percent inhibition; hits of this screen are not shown here. inhibition, % at 25 µM. actives 0.27% (n = 330,000). AID 434955, 2010;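 active = about 74% or more and at least 40 points above the plate without the antibiotic, then above 30% in a dose series; inconclusive = first-round hits that could not be retested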;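 note: growth measured after seven days incubation then overnight dye step; 0% = bacteria only wells and 100% = bacteria with antibiotic; twin plates without the antibiotic show which effects depend on it; some results filed as inactive read as strong as hits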
RecA splice inh – Mtb RecA intein splicing inhibitors, primary screen, biochemical, fluorescence, HTS. Protein RecA (Mycobacterium tuberculosis (strain ATCC 25618 / H37Rv)), P9WHJ3. cell-free RecA intein splicing. inhibition, %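 (about 9 µM by stock and volumes)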. actives 0.75% (n = 290,000); in the data active = inhibition above about 30%; inconclusive = no clear call, values can overlap the other calls;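 note: 0% = vehicle wells and 100% = reference inhibitor control wells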
Target sequence (P9WHJ3 whole entry, looked up, canonical isoform): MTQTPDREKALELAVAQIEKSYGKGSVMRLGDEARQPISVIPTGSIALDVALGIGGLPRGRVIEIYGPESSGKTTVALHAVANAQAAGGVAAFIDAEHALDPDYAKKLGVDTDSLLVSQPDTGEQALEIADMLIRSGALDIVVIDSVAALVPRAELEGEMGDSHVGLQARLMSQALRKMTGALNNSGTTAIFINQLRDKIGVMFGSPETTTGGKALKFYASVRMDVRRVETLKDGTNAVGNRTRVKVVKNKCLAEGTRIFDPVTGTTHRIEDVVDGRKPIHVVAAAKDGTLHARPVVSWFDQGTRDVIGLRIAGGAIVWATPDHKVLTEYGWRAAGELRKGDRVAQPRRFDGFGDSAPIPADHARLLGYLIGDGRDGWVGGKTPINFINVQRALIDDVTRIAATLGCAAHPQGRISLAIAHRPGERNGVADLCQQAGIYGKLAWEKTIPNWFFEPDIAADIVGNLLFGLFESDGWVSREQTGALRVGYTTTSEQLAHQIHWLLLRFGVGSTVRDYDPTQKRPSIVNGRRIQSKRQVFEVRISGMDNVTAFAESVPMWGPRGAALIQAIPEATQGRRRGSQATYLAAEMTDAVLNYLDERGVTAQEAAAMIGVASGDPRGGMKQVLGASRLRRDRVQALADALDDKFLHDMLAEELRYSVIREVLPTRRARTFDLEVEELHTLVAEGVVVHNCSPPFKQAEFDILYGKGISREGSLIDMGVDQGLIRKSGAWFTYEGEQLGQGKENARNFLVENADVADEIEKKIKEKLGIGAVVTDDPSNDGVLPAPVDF
Arbovirus anti repeat – also measured in Arbovirus anti; calls as there; inhibition, %; measured here: 10K subset replicate screen; many hits read low in the repeat;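 first of two repeat runs on a subset; 0% = infected and 100% = uninfected wells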
* hit, by the source's call; ? = inconclusive; nt = no result given.

SMILES	Mtb growth	Arbovirus anti	YopH inh	Mtb betalactam	RecA splice inh	others
Cc1ccnc(NS(=O)(=O)c2ccc(NC(=O)c3oc4ccccc4c3C)cc2)n1	nt	nt	nt	6	-0.5
Cc1nn(C)cc1/C=C1\CCC/C(=C\c2cn(C)nc2C)C1=O	6%	-18	-14	-6	1.9
COc1ccc(C(=O)Nc2ccc(O)cc2C(=O)O)cc1	23%	6	nt	6	-5.6
OCc1ccc(N=Nc2ccccc2)cc1	nt	nt	nt	-2	3.6
Cc1ncc(CO)c2c1Oc1nc(-c3ccccc3)nc(SCC(=O)N3CCOCC3)c1C2	nt	nt	nt	0	-0.2
NC(=O)C(c1ccccn1)c1ncc(C(F)(F)F)cc1Cl (stereo not given)	2%	0	nt	-3	-0.6
COc1ccc2c(-c3ccccc3)cc3nnnn3c2c1	-11%	3	-64	0	0.0
O=C(C1Cc2ccccc2CN1S(=O)(=O)c1ccc(F)cc1)N1CCCCCC1 (stereo not given)	-7%	-6	-29	?	1.2
COc1ccc(C(=O)NCc2cccnc2)cc1S(=O)(=O)N1CCCc2ccccc21	1%	6	nt	-5	4.8
COc1ccccc1NS(=O)(=O)c1cn(C)cn1	nt	nt	nt	-6	0.9
Fc1ccc(/C=N/n2c(C3CCCCC3)n[nH]c2=S)cc1	nt	nt	nt	?	0.4
COc1ccc(-c2noc(N3CCC(C(=O)Nc4ccc(F)cc4)CC3)n2)cc1	nt	nt	nt	0	-2.5
COc1ccccc1C1C2=C(CCCC2=O)N(CC(=O)O)C2=C1C(=O)CCC2	nt	nt	nt	8	-499
O=C(N1CCN(CCO)CC1)N1c2ccccc2C=Cc2ccccc21	1%	-3	-47	-9	-11
Cc1cccc(NC(=O)CSCC(=O)Nc2ccccc2N2CCCCC2)c1	nt	nt	nt	-11	1.1
COC(=O)c1ccccc1NC(=O)c1ccc2nccnc2c1	2%	7	nt	5	2.2
O=C1CC(C(=O)Nc2ccccc2)C2(CCCC2)O1 (stereo not given)	-3%	-1	-15	0	0.5
COc1ccc2c(C)cc(=S)[nH]c2c1	-2%	-2	nt	nt	-1.1
CCCCNC(=O)c1onc(CSc2nc3ccccc3[nH]2)c1C(=O)NCCCC	nt	nt	nt	-8	1.2
O=C(CN1C(=O)CS/C1=C\c1nc(-c2ccc(Cl)cc2)cs1)Nc1cccnc1Cl	3%	-21	nt	7	0.8
Cc1ccc(C(=O)Nc2cccnc2N2CCN(C)CC2)cc1	-1%	-2	nt	-9	0.4
Cc1ccccc1-n1c(SCC(=O)O)nc2sc3c(c2c1=O)CCCC3	nt	nt	nt	-7	0.1
N#Cc1cccnc1N1CCN(C(=O)COCC(=O)O)CC1	2%	nt	nt	-2	-1.7
CCC1(C)Cc2c(C#N)c(N)sc(=S)c2CO1 (stereo not given)	-20%	4	28	2	3.9
Cc1cc(C(=O)NCCc2ccccc2)c2cc(F)ccc2n1	5%	5	nt	-3	-1.0

Arranged by length of the SMILES (rising): some entries from above
SMILES	Mtb growth	Arbovirus anti	YopH inh	Mtb betalactam	RecA splice inh	others
OCc1ccc(N=Nc2ccccc2)cc1	nt	nt	nt	-2	3.6
COc1ccc2c(C)cc(=S)[nH]c2c1	-2%	-2	nt	nt	-1.1
COc1ccccc1NS(=O)(=O)c1cn(C)cn1	nt	nt	nt	-6	0.9
CCC1(C)Cc2c(C#N)c(N)sc(=S)c2CO1 (stereo not given)	-20%	4	28	2	3.9
COC(=O)c1ccccc1NC(=O)c1ccc2nccnc2c1	2%	7	nt	5	2.2
Cc1ccc(C(=O)Nc2cccnc2N2CCN(C)CC2)cc1	-1%	-2	nt	-9	0.4
NC(=O)C(c1ccccn1)c1ncc(C(F)(F)F)cc1Cl (stereo not given)	2%	0	nt	-3	-0.6
Fc1ccc(/C=N/n2c(C3CCCCC3)n[nH]c2=S)cc1	nt	nt	nt	?	0.4
O=C(N1CCN(CCO)CC1)N1c2ccccc2C=Cc2ccccc21	1%	-3	-47	-9	-11
Cc1ccccc1-n1c(SCC(=O)O)nc2sc3c(c2c1=O)CCCC3	nt	nt	nt	-7	0.1
COc1ccc(-c2noc(N3CCC(C(=O)Nc4ccc(F)cc4)CC3)n2)cc1	nt	nt	nt	0	-2.5
COc1ccc(C(=O)NCc2cccnc2)cc1S(=O)(=O)N1CCCc2ccccc21	1%	6	nt	-5	4.8
Cc1ccnc(NS(=O)(=O)c2ccc(NC(=O)c3oc4ccccc4c3C)cc2)n1	nt	nt	nt	6	-0.5
Cc1ncc(CO)c2c1Oc1nc(-c3ccccc3)nc(SCC(=O)N3CCOCC3)c1C2	nt	nt	nt	0	-0.2

Next part.
SMILES	Mtb growth	Arbovirus anti	YopH inh	Mtb betalactam	RecA splice inh	others
N#Cc1ccc(Oc2ccc(-c3nc4ccccc4nc3-c3ccccc3)cc2)cc1C#N	16%	-10	-49	9	3.2
CCN=C1SC(C(=O)Nc2cccc(C)c2)CC(=O)N1CC (stereo not given)	5%	6	-10	2	-1.3
COc1ccc(S(=O)(=O)N(CCN2CCOCC2)Cc2cc(OC)ccc2OC)cc1	2%	-1	1	-6	-0.6
CCn1c(SCC(=O)OC)nnc1-c1ccc(C)cc1	-12%	nt	nt	-1	2.1
O=C(Nc1ccc(Cl)cc1)Nc1nnc(SCc2ccccc2)s1	0%	5	-26	6	-0.1
O=C(Nc1c(F)cccc1F)c1cnc(N2CCN(c3ccccn3)CC2)c2ccccc12	15%	-8	-14	100	9.4
O=C(Nc1ncc2c(n1)-c1ccccc1CC2)C1CC1	8%	0	nt	1	1.1
CN1CC(C#N)C2(O)c3ccccc3CCC2C1 (stereo not given)	nt	nt	nt	-3	0.2
COc1cc(/C=N\NC(=O)CNC(=O)c2cccc([N+](=O)[O-])c2)ccc1O	5%	3	-24	-11	-3.0
CCOc1ccc(CCNC(=O)C2CCN(c3nn4c(=O)cc(C)nc4s3)CC2)cc1	-2%	13	-15	-18	nt
C#C[C@]1(O)CC[C@H]2[C@@H]3CCC4=Cc5oncc5C[C@]4(C)[C@H]3CC[C@@]21C	7%	nt	nt	0	10
CC1Cc2ccccc2N1C(=O)c1nn(C)cc1Br (stereo not given)	2%	-5	-32	1	0.9
Cc1ccc(C(=O)NN2C(=O)C3C4c5ccccc5C(c5ccccc54)[C@@H]3C2=O)cc1 (stereo not given in full)	4%	0	-22	4	-1.4
CCOc1ccccc1C1CC(=O)NC(SCC)=C1C#N (stereo not given)	6%	-3	37	-8	5.1
CCOC(=O)C1(Cc2cccc(Cl)c2)CCCN(C(=O)CCSC)C1 (stereo not given)	nt	nt	nt	5	1.9
COc1cccc(N2CCN(S(=O)(=O)c3cc4c(cc3Cl)NC(=O)CO4)CC2)c1	nt	nt	nt	3	-1.0
CN(C)NC(=O)C(NC(=O)c1ccc(N)cc1)C12CC3CC(CC(C3)C1)C2 (stereo not given)	1%	6	nt	3	-0.1
Cc1ccc(NC(=O)/C(C#N)=N/Nc2ccc(C(=O)O)cc2)c(C)c1	-5%	nt	nt	-4	2.8
COC(=O)c1ncn(C2OC(COC(C)=O)C(OC(C)=O)C2OC(C)=O)n1 (stereo not given)	-4%	2	-42	1	-0.9
Cc1ccccc1CN1CCN(CC(=O)NCc2ccccc2)CC1	nt	nt	nt	-1	-0.9
COc1ccc(C(=O)NC2CC(C)(C)Cc3occc32)cc1 (stereo not given)	-3%	3	-8	5	4.3
CC(C)[C@H](NC(=O)NCCc1ccc(F)cc1)C(=O)O	-6%	-18	-41	7	-0.3
CCCn1c(N)c(N(CCOC)C(=O)c2ccc(F)cc2)c(=O)[nH]c1=O	nt	nt	nt	7	-2.3
COc1ccc(CN2CCNC(=O)C2CC(=O)N2CCCCO2)cc1OC (stereo not given)	5%	4	nt	5	0.4
N/C(=N\OC(=O)CC1CCCCC1)c1ccc([N+](=O)[O-])cc1	-6%	-5	-2	0	0.6

Additional compounds
SMILES	Mtb growth	Arbovirus anti	YopH inh	Mtb betalactam	RecA splice inh	others
CCOc1ccc(NC(=O)C2CC(=O)N(C(C)C)C2)cc1 (stereo not given)	nt	1	-35	2	2.0
C=CCOc1c(Br)cc(/C=C2/C(=O)ON=C2C)cc1OC	nt	nt	nt	7	1.0
CCCOc1ccc(/C=C2/C(=O)ON=C2C)cc1OCC	nt	nt	nt	-3	-0.3
CCC(=O)NCCc1nc2ccccc2n1CC(=O)c1ccccc1	-2%	2	-8	0	1.5
Cc1ccc(NS(=O)(=O)c2ccc(C)c(NC(=O)COc3ccccc3)c2)c(C)c1	6%	3	-35	0	3.9
COC(=O)c1ccc(Oc2c(C)oc3cc(OCc4cnn(-c5ccccc5)c4)ccc3c2=O)cc1	-1%	-14	-33	1	0.6
COc1cc(CNCc2ccccn2)ccc1OCc1cccc(Cl)c1	28%	5	-28	89	3.4
COc1ccc(CN2CCOCC2)cc1OC	-10%	1	-29	-7	-0.9
Cc1cc(OCC(=O)NCCN2CCOCC2)cc(C)c1Br	-4%	4	-28	0	-0.4
Cn1c(=O)c2c(nc(NCc3ccc4c(c3)OCO4)n2Cc2ccccc2F)n(C)c1=O	14%	6	-50	5	0.7
CC(=O)N1CCN(c2ccc(NC(=O)c3ccc(N4CCCC4)c([N+](=O)[O-])c3)cc2Cl)CC1	45%	-10	-28	93	0.1
COc1cccc(NC(=O)c2ccc3c(c2)N(CC(=O)N2CCCCC2)C(=O)C(C)(C)O3)c1	-3%	-2	-57	16	3.3
CCCCn1c(SCc2c(C)noc2C)nc2cc(S(N)(=O)=O)ccc21	-4%	-16	-17	6	4.1
COc1ccc(-c2csc(NC(=O)Cc3ccccc3F)n2)cc1OC	nt	nt	nt	93	8.2
COc1ccc(NC(=O)CS(=O)(=O)c2cn(CC(=O)N3CCOCC3)c3ccccc23)cc1	2%	3	nt	-2	-1.5
C/C(=N/Nc1nc(-c2ccc(Cl)cc2)cs1)c1cccs1	-6%	8	-14	-3	-2.9
COCCNC(=O)Cn1nc(-c2ccc(Cl)cc2)c2ccccc2c1=O	nt	nt	nt	42	1.8
COc1ccccc1N(C(C)=O)C1SC(=O)N(c2ccccc2)C1=O (stereo not given)	1%	5	-15	6	3.4
COCC(C)NC(=O)CSc1nc2ccccc2c(=O)n1CCc1ccc(S(N)(=O)=O)cc1 (stereo not given)	nt	nt	nt	-5	-5.4
Cc1ccc(-n2c(=O)c3c(C)c(C)sc3n(Cc3cc(=O)n4ccccc4n3)c2=O)cc1C	14%	-1	-2	3	-1.5
CCc1c(C)c(C#N)c2nc3ccccc3n2c1NC	nt	nt	nt	6	1.9
CCC(C)N(C(=O)COC(=O)c1cn(CC)c2nc(C)ccc2c1=O)C1CCS(=O)(=O)C1 (stereo not given)	5%	nt	nt	-4	-2.3
CC(=O)N1CC(C)Oc2ccc(S(=O)(=O)NC(CC(=O)O)c3ccc(C)cc3C)cc21 (stereo not given)	nt	nt	nt	-15	2.1
c1ccc(CN2CCC(Nc3nc(-c4cccnc4)nc4ccccc34)CC2)cc1	11%	-32	nt	9	-2.8
CCOC(=O)N1CCN(S(=O)(=O)c2ccc(OC)c(Cl)c2)CC1	-2%	11	32	-16	-0.6

The last 2 entries of the section before come first, to join the parts:
SMILES	Mtb growth	Arbovirus anti	YopH inh	Mtb betalactam	RecA splice inh	others
c1ccc(CN2CCC(Nc3nc(-c4cccnc4)nc4ccccc34)CC2)cc1	11%	-32	nt	9	-2.8
CCOC(=O)N1CCN(S(=O)(=O)c2ccc(OC)c(Cl)c2)CC1	-2%	11	32	-16	-0.6
O=C(CSc1ccccn1)N/N=C/c1ccccc1[N+](=O)[O-]	-8%	-7	-21	7	-2.9
C/C=C1\COC(C(=O)NCc2ccncc2)(C(F)(F)F)C=C1C=C1CCCCC1 (stereo not given)	3%	nt	nt	2	8.1
O=C1CN(c2nc3ccccc3n3cnnc23)CC(=O)N1CCc1ccccc1	-12%	8	-26	-10	2.3	Arbovirus anti repeat=10
Cc1ccc(C(=O)NCc2ccco2)cc1S(=O)(=O)Nc1cccc(Cl)c1	-4%	2	-2	-3	9.5
COc1ccc(NS(=O)(=O)c2ccc(Cl)c(N)c2)cc1Br	-7%	7	nt	-4	2.5
CCOc1c(Cl)cc(/C=N/NC(N)=S)cc1OC	22%	-10	-15	86	-0.7
CC1CCCC(C)N1S(=O)(=O)c1ccc(NC(=O)c2ccccc2C(=O)N2CCOCC2)cc1 (stereo not given)	1%	-5	19	-1	-0.7
Cc1cccc2cc(/C=C/C(=O)c3ccco3)c(Cl)nc12	8%	nt	nt	17	2.3
CS(=O)(=O)Nc1ccc(-c2cn3c(n2)SCC3)cc1	nt	nt	nt	4	-2.6
O=C(NCCc1csc(-c2cccnc2)n1)c1ccc(Cl)cc1	7%	-4	nt	-5	-4.5
c1ccc(-n2nnnc2-n2cnc3ccccc32)cc1	-2%	7	-4	-7	0.7

Assay outcomes deposited in PubChem BioAssay by several laboratories.

The list is partial (hit frequency here may not be typical).
